Source: PubChem
Rce1 inh: blocks yeast Ras-converting enzyme; Q03530; 290,000 tested, 0.27% active; yeast membranes, quenched prenylated peptide cleavage fluorescence; calls only;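 active = fall in fluorescence gain of 50% or more versus controls, with final raw signal at or below 3038400; inconclusive = same 50% fall but final raw signal above 3038400; inactive = fall in fluorescence gain under 50%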;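 note: plate controls were neutral control wells for no effect and wells lacking membranes for full effect; tested at 10 µM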
Target sequence (Q03530 whole entry, looked up): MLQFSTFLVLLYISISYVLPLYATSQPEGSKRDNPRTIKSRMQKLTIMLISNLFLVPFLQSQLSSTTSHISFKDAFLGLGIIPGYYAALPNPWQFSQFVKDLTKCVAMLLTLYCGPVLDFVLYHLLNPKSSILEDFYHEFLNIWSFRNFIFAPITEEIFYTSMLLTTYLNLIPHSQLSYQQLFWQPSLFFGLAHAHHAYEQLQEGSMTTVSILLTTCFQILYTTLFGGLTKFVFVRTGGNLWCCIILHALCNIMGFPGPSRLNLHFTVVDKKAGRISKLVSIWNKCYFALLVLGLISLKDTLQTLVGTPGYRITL
HIV Env fusion: inhibitors of HIV Env-mediated cell fusion | HeLa-JRFL Env/CEM21 cell fusion, luciferase | inhibition, % at 12.3 µM | 360,000 tested, 1.1% active | AID 651610;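 active = mean replicate inhibition score of at least 50 and every replicate individually at or above 50; inconclusive = only one of the two criteria met; inactive = mean below 50 and not all replicates reaching 50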;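 note: 0% = plate neutral controls and 100% = maraviroc near 300 nM; one replicate is shown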
Yeast UUG start: alters start codon recognition fidelity in yeast. S. cerevisiae UUG-firefly luciferase reporter, luminescence/redox ratio. activity score, % at 18.7 µM. 350,000 tested, 0.13% active. AID 602363;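 active = replicate mean at a twofold rise or more, about +100% in these data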;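 note: firefly luciferase made from a UUG start codon reports start codon fidelity; reporter light over untreated wells divided by growth signal over untreated wells; some hits fall short of that in this replicate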
CSC inhib: cancer stem cell inhibition | cancer stem cell-like cells viability, luminescence | 300,000 tested, 1.1% active | AID 2717 | inhibition, % at 7.5 µM;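 active = mean at 75% or more and at least half the replicates too; inconclusive = mean and replicates disagree; tested in HMLE shEcad cells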;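 note: 0% = median of negative and 100% = median of positive control wells; the first replicate is given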
MT1-MMP act inh: blocks activation of human MT1-MMP | GFP/RFP ratio change, % at 20 µM | 360,000 tested, 0.061% active | HT1080 RFP-PRO-GFP cells, GFP/RFP ratio fluorescence, overnight; percent of plate control window, DMSO zero | P50281;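 active = GFP/RFP ratio change of at least 30% with cell ATP level not reduced by more than half and red fluorescence within 50% of control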; note: strong numbers were not always called active
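Read-out: GFP/RFP fluorescence ratio; Test system: RFP-PRO-GFP reporter HT1080 cells; Compound dosing: single-point 20 µM compound, 1% DMSO; Times: overnight compound exposure at 37 °C.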
PABP FP inh: PABP-poly(A) binding inhibition. P11940. PABP-poly(A) RNA binding, fluorescence polarization. inhibition, % at 35 µM. 290,000 tested, 1% active. AID 2014;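 active = 50% or more with normal probe brightness, or confirmed in later tests; inconclusive = above 50% with abnormal brightness, or retests that disagree; inactive = below 50% or failed in later tests; about a fifth of its hits are not listed in these tables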;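 note: calls also rest on retests at 20 µM and on dose response follow-up; controls were probe without protein and protein plus probe with vehicle; some compounds called inactive have numbers as strong as hits; many hits fall short of the cut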
eIF4H FP inh: inhibitors of RNA binding by human eIF4H. 290,000 tested, 0.94% active. eIF4H fluorescence polarization binding assay. AID 2012. inhibition, % at 35 µM;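 active = 50% or more with normal probe brightness, or confirmed in later tests; inconclusive = above 50% with abnormal brightness, or retests that disagree; inactive = below 50% or failed in later tests; about a fifth of its hits are not listed in these tables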;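 note: calls also rest on retests at 20 µM and on dose response follow-up; 0% = protein and probe with vehicle and 100% = probe without protein; strong numbers were not always called active; many hits fall short of the cut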
eIF4H FP inh retest: further read-out of eIF4H FP inh, marked with its call; inhibition, %; compound at 20 µM; confirmation average;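 mean of two retest wells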
PABP FP inh retest: also measured in PABP FP inh; calls as there; inhibition, %; compound at 20 µM; confirmation repeats;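 mean of two retest wells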
MT1-MMP act inh RFP: recorded beside MT1-MMP act inh, whose call it bears; RFP signal change, %; measured here: RFP expression control read;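 0 = vehicle wells; hits needed this value within 50% of zero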
An asterisk follows results filed as active; i = inactive; ? = inconclusive; nt = no result given.

SMILES	Rce1 inh	HIV Env fusion	Yeast UUG start	CSC inhib	MT1-MMP act inh	MT1-MMP act inh RFP	PABP FP inh	eIF4H FP inh	others
CC(=O)c1cccc(S(=O)(=O)N(Cc2cc3cc4c(cc3[nH]c2=O)OCCO4)CC2CCCO2)c1 (stereo unspecified)	i	-67	-3	-3	1	-3	7	7
CC(C)OCCCNC(=S)N1CCC(C(=O)c2ccc(Cl)cc2)CC1	i	19	-21	-4	11	-9	-2	3
CCCC(=O)N1c2ccccc2C(=C2SC(C(=O)OC)=C(C(=O)OC)S2)C(=S)C1(C)C	i	-59	-10	-17	13	-6	5	-5
O=C(O)c1cc(-c2cccnc2)nn1-c1ccccn1	i	nt	-9	-19	3	2	-2	-4
COC(=O)[C@]1(C)N[C@H](CN(C)C(C)=O)[C@@H]2C(=O)N(C)C(=O)[C@@H]21	nt	0	-11	nt	1	5	nt	nt
COC(=O)c1ccc2c(c1)N(Cc1ccccc1F)C(=O)c1ccccc1S2=O (stereo unspecified)	i	30	-1	15	0	8	-20	-12
CN(CCCNC(=O)CSc1cc(=O)n(C)c2ccc(Cl)cc12)Cc1ccccc1	i	15	-1	10	0	2	-3	2
Cc1nc2cc(NC(=O)CCS(=O)(=O)c3ccccc3)ccc2s1	i	-32	-15	-7	nt	nt	-3	-12
CCc1ccc(N2CC(C(=O)NC3=NCCS3)CC2=O)cc1 (stereo unspecified)	i	14	-5	12	12	9	-1	-5
COc1ccc(S(=O)(=O)Nc2cccc(S(=O)(=O)N3CCCCCC3)c2)cc1	i	nt	-6	-7	nt	nt	1	-2
O=C(NNc1ccc([N+](=O)[O-])cc1)C1CC1c1ccccc1 (stereo unspecified)	i	14	nt	-3	-2	1	-2	-12
CC(=O)Nc1nc2cccc([N+](=O)[O-])c2s1	i	-25	nt	-8	-2	3	-5	-7
Cc1cccc(OCc2nnc(SCC(=O)N(C(C)C)C(C)C)n2Cc2ccco2)c1C	i	?	-11	0	-7	-9	4	-4
CC1(C(=O)NS(=O)(=O)c2ccc(Br)cc2)CCN1C(=O)Cc1ccsc1 (stereo unspecified)	nt	1	5	nt	0	1	nt	nt
COc1ccccc1NS(=O)(=O)c1cc2c(cc1C)NC(=O)CO2	i	3	-12	-7	2	1	2	-9
CCCOc1cc(C)nc(-c2ccccc2O)n1	i	nt	-9	1	1	2	12	-5
Cc1cc(C=O)c(C)n1-c1ccc2c(c1)OCO2	i	2	nt	-12	-2	4	12	6
CCOC(=O)c1sc(NC(=O)CSc2nnnn2-c2ccc(C)c(C)c2)nc1C	i	nt	-14	-10	-2	-6	0	-2
Cc1cc(C)n(CC(=O)N2CCCC(N3CCN(c4cccc(C(F)(F)F)c4)CC3)C2)n1 (stereo unspecified)	nt	nt	-28	1	2	-5	-8	-4
CC(CNC(=O)C1CCCN(S(=O)(=O)N2CCOCC2)C1)c1ccccc1 (stereo unspecified)	i	-8	nt	-4	-3	2	66	-2	eIF4H FP inh retest=-15;PABP FP inh retest=2
Cc1cc(Cl)ccc1NC(=O)CCN1C(=O)C2CCCCC2C1=O (stereo unspecified)	nt	nt	-15	-17	0	0	nt	nt
CCCNC(=O)CSc1nnc(-c2ccco2)n1C	nt	nt	-26	-2	1	8	5	-6
COCc1cc([C@@H]2C[C@H]3CN(c4ccccc4)C(=O)[C@]34CCCN24)ccc1OC	nt	17	nt	10	-10	1	-5	-12
CCOCCCNC(=O)C1CCN(c2cc(C)nc3c(-c4ccc(OC)c(OC)c4)c(C)nn23)CC1	i	5	-11	0	2	-2	15	-6
COC(=O)CCC(=O)Nc1ccc(N=Nc2ccccc2)cc1	i	-17	nt	3	3	0	7	6
Clc1ncnc2c1oc1ccccc12	i	-108	-25	6	-1	-1	2	11
COCOCCn1cc(CN2CCS(=O)(=O)N(Cc3ccc(-c4ccc(Cl)c(Cl)c4)cc3)C(C)C2=O)nn1 (stereo unspecified)	nt	1	2	nt	-6	-20	nt	nt
O=C(NC1CCCC1)c1ccc2c(c1)N(Cc1ccccc1)CCS2	i	12	-11	20	4	1	7	-8
Cn1c(SCC(=O)c2ccc(F)cc2)nnc1-c1ccccc1N	i	nt	-16	-6	0	-5	2	-6
CCOC(=O)Nc1ccc2c(CN3CCN(S(=O)(=O)c4ccccc4)CC3)cc(=O)oc2c1	i	-49	-25	14	-2	-4	-1	2
O=c1ccc(Oc2nc(N3CCOCC3)nc(N3CCOCC3)n2)n[nH]1	i	nt	-8	-9	4	6	1	-4
CCOc1ccc2[nH]c(S(=O)(=O)CC)nc2c1Cl	i	-73	20	nt	-1	-1	-3	-5
CC(C)[C@H](NC(=O)c1ccccc1F)C(=O)Nc1cccc(S(=O)(=O)N2CCOCC2)c1	nt	-5	-14	nt	-7	-6	nt	nt
CC(=O)c1c(N)[nH]c(-c2ccccc2)nc1=S	i	nt	-9	10	2	7	-11	2
Cc1nc(CCNC(=O)CC2C(=O)NCCN2Cc2ccoc2)nc2c1CCCC2 (stereo unspecified)	i	-16	nt	-9	2	4	22	26
COc1ccc(C(=O)N/C(=C\c2cn(C)c3ccccc23)C(=O)OCC(C)C)cc1	i	nt	-16	-2	0	2	2	1
CCCS(=O)(=O)N1CCCC(C(=O)N2CCOCC2)C1 (stereo unspecified)	i	nt	-18	-6	-2	4	-6	-8
CCOC(=O)C1(C/C(C)=N/NC(N)=O)CC(C)OC1=O (stereo unspecified)	i	1	-10	10	-1	3	-14	-8
Cn1cnnc1SCC(=O)NCCC(c1ccccc1)c1ccccc1	i	nt	3	-13	-1	0	10	7
CCOc1ccccc1N1CCN(C(=O)CCNS(=O)(=O)c2ccccc2F)CC1	i	2	-10	-15	3	0	nt	nt

Grouped by structure, those above containing two or more sulfur atoms (five)
SMILES	Rce1 inh	HIV Env fusion	Yeast UUG start	CSC inhib	MT1-MMP act inh	MT1-MMP act inh RFP	PABP FP inh	eIF4H FP inh	others
CCCC(=O)N1c2ccccc2C(=C2SC(C(=O)OC)=C(C(=O)OC)S2)C(=S)C1(C)C	i	-59	-10	-17	13	-6	5	-5
Cc1nc2cc(NC(=O)CCS(=O)(=O)c3ccccc3)ccc2s1	i	-32	-15	-7	nt	nt	-3	-12
COc1ccc(S(=O)(=O)Nc2cccc(S(=O)(=O)N3CCCCCC3)c2)cc1	i	nt	-6	-7	nt	nt	1	-2
CC1(C(=O)NS(=O)(=O)c2ccc(Br)cc2)CCN1C(=O)Cc1ccsc1 (stereo unspecified)	nt	1	5	nt	0	1	nt	nt
CCOC(=O)c1sc(NC(=O)CSc2nnnn2-c2ccc(C)c(C)c2)nc1C	i	nt	-14	-10	-2	-6	0	-2

(continued)
SMILES	Rce1 inh	HIV Env fusion	Yeast UUG start	CSC inhib	MT1-MMP act inh	MT1-MMP act inh RFP	PABP FP inh	eIF4H FP inh	others
O=C1CC(N2CCN(C3CC(=O)N(CCc4ccccc4)C3=O)CC2)C(=O)N1CCc1ccccc1 (stereo unspecified)	i	nt	-13	0	0	-6	6	-2
O=[N+]([O-])c1ccc2c(c1)CO[C@@]21O[C@H](CCO)C[C@H](O)[C@H]1O	nt	60*	13	nt	0	-1	nt	nt
Cc1ccccc1CC(=O)Nc1cc(C(C)(C)C)on1	i	-23	-1	-10	-2	-1	-6	5
CCOc1ncccc1C(=O)N(CC)CC(=O)NCc1ccc(Cl)cc1	i	-8	-18	0	1	4	4	-6
O=C(NCCC(=O)N1CCC2(CC1)NCCc1[nH]cnc12)c1cccc(Cl)c1	i	20	-10	-6	1	2	nt	nt
FC(F)(F)c1cc(CO[C@@H]2CCCN[C@@H]2c2ccccc2)cc(C(F)(F)F)c1	nt	-13	-4	15	2	0	nt	nt
COC(=O)c1sc(NC(=O)CSc2nnnn2-c2cccc(OC)c2)nc1C	i	-35	-16	14	-2	2	2	-5
Nc1ncnc2c1ncn2C1OC(COP(=O)(O)O)C(O)C1O (stereo unspecified)	i	-11	-17	0	2	6	7	-16
Cc1cccc(NC(=S)NCCO)c1C	i	-37	nt	6	-1	-1	10	2
COc1ccc(OC)c(NC(=O)Cc2ccc(NC3=NC4CS(=O)(=O)CC4S3)cc2)c1 (stereo unspecified)	i	?	-24	nt	0	2	4	3
Clc1ccc(OCCSCc2nc3ccccc3[nH]2)cc1	i	nt	-29	12	-5	-12	4	4
COC(=O)CCC(=O)OC1(C)C(=O)C=C2C=C3CCCN3C=C2C1=O (stereo unspecified)	i	27	-8	0	1	4	60*	107*
CCOC(=O)c1sc(NC(=O)CCCCCN2C(=O)c3cccc4cccc(c34)C2=O)nc1C	nt	-52	-14	nt	0	-4	-7	-2
Cc1cccc(-c2ncc(CN3CCCC(CO)(Cc4ccccc4C)C3)cn2)c1 (stereo unspecified)	i	18	nt	25	-1	2	-12	-10
Cc1ccc(CCNC(=O)CCS(=O)(=O)c2cc3c(cc2C)NC(=O)CO3)cc1	i	6	9	nt	1	2	-4	4
CCN1C(=O)CC(N2CCC(Nc3ccc(OC)cc3)CC2)C1=O (stereo unspecified)	nt	nt	-15	-9	-1	5	-7	-4
Cc1ccc(C(=O)CNc2cccc([N+](=O)[O-])c2)cc1	i	4	5	26	2	2	-8	52	eIF4H FP inh retest=-7;PABP FP inh retest=0
CC(C)CN(C(=O)COC(=O)CCCc1nc2ccccc2s1)c1c(N)n(Cc2ccccc2)c(=O)[nH]c1=O	i	11	nt	-16	-5	-1	nt	nt
C#CCOCCOCCOCCNc1nc(N2CCN(C(=O)CCCCCCCCCCNC(=O)Cn3cc(CCCCCN)nn3)CC2)nc(N2CCN(C(=O)CCCCCCCCCCNC(=O)[C@@H](CCC(=O)O)n3cc(CCCCCN)nn3)CC2)n1	nt	nt	-6	-6	5	7	nt	nt
COC(=O)C(=O)C/C(=N/Nc1ncnc2ccccc12)c1ccc(Cl)cc1	i	-1	-30	0	-81	-5	11	41
Cc1sc(NC(=O)C2CCCCC2)c(C#N)c1-c1ccccc1	i	-199	-21	?	-5	-7	-2	2
C=CCCCCCCCCc1nc(SCC(C)=O)n[nH]1	i	-10	nt	8	0	-7	-2	-3
COc1cc(C(=O)Nc2nc3ccc4nc(C)sc4c3s2)cc(OC)c1OC	i	nt	-27	-1	4	5	-5	-16

Molecules listed so far with an NH in an aromatic ring (8):
SMILES	Rce1 inh	HIV Env fusion	Yeast UUG start	CSC inhib	MT1-MMP act inh	MT1-MMP act inh RFP	PABP FP inh	eIF4H FP inh	others
CC(=O)c1cccc(S(=O)(=O)N(Cc2cc3cc4c(cc3[nH]c2=O)OCCO4)CC2CCCO2)c1 (stereo unspecified)	i	-67	-3	-3	1	-3	7	7
O=c1ccc(Oc2nc(N3CCOCC3)nc(N3CCOCC3)n2)n[nH]1	i	nt	-8	-9	4	6	1	-4
CCOc1ccc2[nH]c(S(=O)(=O)CC)nc2c1Cl	i	-73	20	nt	-1	-1	-3	-5
CC(=O)c1c(N)[nH]c(-c2ccccc2)nc1=S	i	nt	-9	10	2	7	-11	2
O=C(NCCC(=O)N1CCC2(CC1)NCCc1[nH]cnc12)c1cccc(Cl)c1	i	20	-10	-6	1	2	nt	nt
Clc1ccc(OCCSCc2nc3ccccc3[nH]2)cc1	i	nt	-29	12	-5	-12	4	4
CC(C)CN(C(=O)COC(=O)CCCc1nc2ccccc2s1)c1c(N)n(Cc2ccccc2)c(=O)[nH]c1=O	i	11	nt	-16	-5	-1	nt	nt
C=CCCCCCCCCc1nc(SCC(C)=O)n[nH]1	i	-10	nt	8	0	-7	-2	-3

No enrichment for hits (roughly 3% active in at least one column).
